Screens from PubChem.
D2 PAM = potentiates the human D2 dopamine receptor allosterically | DiscoveRx D2 beta-arrestin cells, luminescence, 90 min; 100% = 57 uM dopamine signal | 360,000 tested, 0.23% active | AID 624464 | potentiation, % (test concentration not listed); active = potentiation of 50% or more; inconclusive = 30% to 50%; inactive = 30% or less;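 further: compound concentration not given in the record; tested on top of an EC20 dose of dopamine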
Target sequence (P14416 whole entry, looked up): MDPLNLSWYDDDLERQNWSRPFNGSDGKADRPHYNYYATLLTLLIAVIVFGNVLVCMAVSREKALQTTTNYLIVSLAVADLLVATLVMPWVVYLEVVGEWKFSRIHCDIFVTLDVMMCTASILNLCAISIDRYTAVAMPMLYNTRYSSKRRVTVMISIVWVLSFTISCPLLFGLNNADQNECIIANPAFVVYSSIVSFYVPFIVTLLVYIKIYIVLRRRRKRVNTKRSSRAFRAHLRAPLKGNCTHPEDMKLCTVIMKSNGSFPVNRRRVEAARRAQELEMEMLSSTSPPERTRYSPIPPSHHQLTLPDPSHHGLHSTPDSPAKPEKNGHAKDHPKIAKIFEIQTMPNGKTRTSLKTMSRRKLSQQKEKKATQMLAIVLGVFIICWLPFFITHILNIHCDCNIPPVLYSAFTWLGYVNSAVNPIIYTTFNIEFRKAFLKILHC
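PathHunter D2 cells, attached overnight at 37 deg C, received compound in DMSO plus dopamine at EC20 (50 nM final) for 90 min at 37 deg C. Beta-arrestin recruitment was read as luminescence after 1 h with detection reagent at ambient temperature.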
gsp antag = antagonists of gsp mutant (McCune-Albright syndrome); gsp-mutant cells, cAMP HTRF, 30 min; control for the full effect not named in the record; Potency, µM (series often up to 76.9 µM), for inactives: top-dose activity change, negative = inhibition, actives largely listed as inhibitors; 340,000 tested, 0.4% active; active = falling curve of any shape with a large fitted effect; inconclusive = falling curve, mostly with a smaller effect; inactive = flat or rising curve; cell line not stated here;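 further: intracellular cAMP measured with PDE inhibitor Ro 20-1724 present during compound exposure; potency means the concentration at half of the fitted maximal effect; on the % scale 0 is the no-effect control and ±100 the full control effect; nearly all actives have a fitted effect of over 65% in size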
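G418-selected cells were plated in DMEM/10% FBS for 16-24 h at 37C, then treated with compounds plus the PDE inhibitor […] (300 uM solution added) for 30 min at 37C. Intracellular cAMP was measured by HTRF after 30 min lysis at room temperature.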
Sfp PPTase inh = blocks B. subtilis Sfp PPTase activity; Biochemical Sfp PPTase activity, qHTS; Potency, µM, without a hit: max response, negative = inhibition, most hits filed as inhibitors; 310,000 tested, 3.5% active; Q9F4F7; active means well fitted inhibition curve with a large enough effect; inconclusive means small, poorly fitted or top-dose-only effect, or another doubt; inactive means no such curve, though single readings can be large or run the other way;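 further: the enzyme is Sfp with the accession as filed and its product quenches rhodamine fluorescence; potency means the concentration at half of the fitted maximal effect; 0% = enzyme reaction without inhibitor and -100% = no enzyme wells; top concentration of the series not given in the record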
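Fluorescence-quenching assay with 15 nM Sfp, 5 uM rhodamine-CoA and 12.5 uM BHQ-2-labelled ybbR peptide in pH 7.6 Hepes/MgCl2 buffer. Enzyme was pre-incubated with compound for 15 min at room temperature. Rate was taken from the 30-min fluorescence change (525/598 nm).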
Menin-MLL FL inh = menin-MLL binding inhibition, fluorescein peptide | Fluorescence polarization, fluorescein-MLL peptide displacement from menin | FP activity change, % at 61.4 µM | 290,000 tested, under 10 active | AID 1766; inconclusive = falling polarisation curve, or a change in total fluorescence; inactive = total fluorescence flat and polarisation flat or rising; no compound was filed as active; the % refers to the polarisation; negative = inhibition;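 further: % of control where 0% means no effect; inhibitors lower the polarisation; unlabelled MLL peptide was the positive control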
ClpP mod = qHTS Assay for Activators of ClpP; ATP-dependent Clp protease proteolytic subunit (Bacillus subtilis (strain 168)), P80244; purified B. subtilis ClpP, FRET peptide cleavage, 20 min; Potency, µM (doses to about 57.5 µM), inactives show at the highest dose activity change, negative = active; 340,000 tested, 1.9% active; AID 651965, 2013; active = well fitted falling curve with a large enough effect; inconclusive = small, poorly fitted or top-dose-only effect; inactive = no such curve, though single readings can be large or run the other way; further: potency means the concentration at half of the fitted maximal effect; the source files actives as falling curves though it sought activators and does not explain the sign; nearly all actives have a fitted effect of over 65% in size; many hits overshoot -100%
Target sequence (P80244 whole entry, looked up): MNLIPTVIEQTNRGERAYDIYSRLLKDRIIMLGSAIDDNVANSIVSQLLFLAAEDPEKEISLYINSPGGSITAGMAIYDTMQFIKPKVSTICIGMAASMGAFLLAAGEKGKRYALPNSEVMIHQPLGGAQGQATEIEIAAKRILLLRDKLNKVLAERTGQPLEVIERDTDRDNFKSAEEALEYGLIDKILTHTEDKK
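Buffer: 100 mM Tris/HCl pH8, 100 mM KCl, 0.05% low protease BSA, 2.5% glycerol, 0.01% Tween-20. ClpP 10 microg/mL final; 20 min RT; delta FRET normalized to ADEP and DMSO controls.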
TRPV1 PAM = potentiators of human vanilloid receptor 1 (TRPV1); potentiation, % at 8.33 µM; 320,000 tested, 0.02% active; AID 540277; Q8NER1; TRPV1-expressing cells, Fluo-8 calcium influx, capsaicin EC20 potentiation; host cell line not named in the record; control for the full effect not named in the record; active means potentiation above 80%; inconclusive means 30% to 80%; inactive means below 30%; further: 0% is about no effect
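Cells expressing TRPV1 were dye-loaded with Fluo-8 and read kinetically: 10 s baseline, 3 min after compound (agonist portion), then 2 min after EC20 capsaicin (allosteric enhancer portion). Calcium-bound dye fluorescence at 480/520 nm.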
gsp agonist = agonists of gsp mutant (McCune-Albright syndrome). gsp mutant cells, cAMP HTRF, 30 min; control for the full effect not named in the record. Potency, µM (highest dose often 76.9 µM), inactives show top-dose activation (cAMP increase), usual class: activators. 340,000 tested, 0.13% active; active = well fitted activation curve with a large enough effect; inconclusive = small, poorly fitted or top-dose-only effect, or another doubt; inactive = no such curve, though single readings can be large or run the other way; cell line not stated here;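 further: phosphodiesterase inhibitor Ro 20-1724 added with compounds to block cAMP breakdown; potency means the concentration at half of the fitted maximal effect; nearly all actives have a fitted effect of over 60% in size; about a fifth of the inactives were tested at one dose only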
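Cells in DMEM/10% FBS with G418 were pretreated with compounds in DMSO plus […] (300 uM stock) for 30 min at 37C. cAMP was measured by HTRF (cAMP-d2 plus anti-cAMP antibody-K) after 30 min at room temperature.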
An asterisk follows results filed as active; ? = inconclusive; . = no result given; & = joins results of further samples; [ ] = dose if it differs, or a comment.

SMILES | D2 PAM | gsp antag | Sfp PPTase inh | Menin-MLL FL inh | ClpP mod | TRPV1 PAM | gsp agonist
COc1ccc(OC)c(S(=O)(=O)NC(N)=NCCc2ccccc2)c1 | -6 | -1% | 9% | -3.0 | -3.6% | 18 | -1%
O=C(c1ccc(Cl)c(S(=O)(=O)N2CCCC2)c1)N1CCN(c2ccccc2)CC1 | -18 | . | 12% | -2.0 | . | 1 | 16%[15.4 µM]
COc1ccc(NC(=O)Cc2ccc(-c3ccccc3)cc2)cn1 | 0 | -3% | 10% | -9.6 | . | 8 | 6%[15.4 µM]
CC(C)(C)n1nnnc1C(c1ccccc1F)N1CCN(C(=O)c2ccco2)CC1 (stereo not given) | -10 | . | 23% | -4.2 | . | 3 | -2%[15.4 µM]
O=C(NCc1cc(C(F)(F)F)cc(C(F)(F)F)c1)C1CC(c2ccccc2C(F)(F)F)=NO1 (stereo not given) | -14 | -8% | . | . | 0.0% | -1 | 22%
COc1ccc(S(=O)(=O)N2CCOCC2)cc1NC(=O)c1ccc(S(=O)(=O)N2CCCCC2)cc1 | -5 | -2% | . | . | -2.9% | . | 7%
O=C1NC2(CCCCC2)C(=O)N1Cc1ccc([N+](=O)[O-])cc1 | -10 | 6% | -1% | 6.0 | -19% | -11 | -11%
Cc1ccc(N2CC(C(=O)OCC(=O)Nc3ccccc3C)CC2=O)cc1 (stereo not given) | 5 | -12% | . | . | -0.4% | -3 | ?
COc1ccccc1C(=O)NC(=O)CSc1nnc2ccccn12 | -2 | 5% | . | . | 331% | . | 7%
CC(C)(C)OC(=O)C(Cl)(C(=O)OC(C)(C)C)c1ccc2nnnn2n1 | 9 | -4% | -35% | -0.2 | . | -15 | -7%[15.4 µM]
NC(=O)C1CCN(C(=O)/C=C/c2cccc(Br)c2)CC1 | -4 | 0% | 4% | -1.0 | . | -5 | 31%[15.4 µM]
Cc1cc(S(=O)(=O)N2CCCC2)ccc1OCC(=O)NC1CCCC1 | -2 | -3% | 16% | -2.0 | . | 5 | 26%[15.4 µM]
CCn1c2ccccc2c2cc(C3C(C#N)=C(C)NC(C)=C3C#N)ccc21 | -1 | -12% | -11% | 13 | 16µM* | -1 | 11%
Cc1ccc(C23OC(=O)C(C)(C)C2OC(=O)C3(C)C)cc1 (stereo not given) | -8 | -16% | 5% | -1.1 | 1.1% | -1 | -27%
Cc1ccc(OCC(=O)Nc2nnc(S(=O)(=O)N3CCCCCC3)s2)cc1C | -3 | -8% | -1% | -5.8 | -3.1% | ? | ?
CC1(C)CC(=O)C2=C(C1)OC(N)=C(C#N)C21CCN(C(=O)OCc2ccccc2)CC1 | -2 | ? | -3% | ? | -2.8% | -6 | 2%
CC1CCN(C(=O)COC(=O)CCc2c[nH]c3ccccc23)CC1 | -53 | -5% | -13% | -0.7 | -1.3% | -8 | 39%
Cc1ccc(S(=O)(=O)N(C)CCCC(=O)NCc2ccc3c(c2)OCO3)cc1 | -20 | 4% | ? | 2.2 | 1.3% | -23 | 15%
Cc1nc2ccc(-n3ccc(=O)cc3)cc2s1 | -2 | 0% | 18% | -0.6 | -2.5% | 2 | -37%[inhibitor]
O=C(CCCN1C(=O)/C(=C/c2cccs2)SC1=S)Nc1cccnc1 | -21 | . | 14% | 0.6 | . | -5 | -3%[15.4 µM]
CC(Oc1ccc2c(c1)oc(=O)c1ccccc12)C(=O)NCCCN1CCOCC1 (stereo not given) | -10 | 4% | 8% | . | . | 7 | -25%
CCOc1ccccc1N1CCN(S(=O)(=O)c2cccc3nsnc23)CC1 | -1 | -1% | 9% | -0.4 | -0.2% | -11 | -10%
CS(=O)(=O)N(Cc1ccco1)CC(O)Cn1c2ccccc2c2ccccc21 (stereo not given) | 6 | 2% | 7% | -2.6 | -13% | -6 | -18%
CCCC(=O)N1CCN(c2ccc(NC(=O)c3ccc([N+](=O)[O-])o3)cc2Cl)CC1 | 27 | ? | 16% | -0.8 | . | 3 | 8%[15.4 µM]
Cc1cccc(NC(=O)CSCC(=O)N(C)Cc2ccc3c(c2)OCCO3)c1 | 1 | 2% | . | . | -3.3% | . | 22%

Random excerpt: 3 entries already listed.
SMILES | D2 PAM | gsp antag | Sfp PPTase inh | Menin-MLL FL inh | ClpP mod | TRPV1 PAM | gsp agonist
Cc1cccc(NC(=O)CSCC(=O)N(C)Cc2ccc3c(c2)OCCO3)c1 | 1 | 2% | . | . | -3.3% | . | 22%
CS(=O)(=O)N(Cc1ccco1)CC(O)Cn1c2ccccc2c2ccccc21 (stereo not given) | 6 | 2% | 7% | -2.6 | -13% | -6 | -18%
Cc1ccc(S(=O)(=O)N(C)CCCC(=O)NCc2ccc3c(c2)OCO3)cc1 | -20 | 4% | ? | 2.2 | 1.3% | -23 | 15%

(list continues)
SMILES | D2 PAM | gsp antag | Sfp PPTase inh | Menin-MLL FL inh | ClpP mod | TRPV1 PAM | gsp agonist
Cc1ccc(CNC(=O)c2ccc(N3CCC4(CC3)CC(c3cccc(Br)c3)=NO4)c(NC(=O)c3cccc(C)c3)c2)cc1 | -14 | 5% | . | . | -10% | 22 | .
COC(=O)c1ccccc1NC(=O)NCc1ccccn1 | -8 | 9% | 32%[activator] | 2.0 | 28µM* | 14 | ?
CN(C)c1ccc(C(=O)OCc2ccc(Br)cc2)cc1 | -7 | -2% | 2% | 0.8 | ? | 0 | 21%
CCOc1ccc(CCNC(=O)C2CCCN(S(C)(=O)=O)C2)cc1OCC (stereo not given) | -7 | 7% | 18% | 0.6 | 0.5% | 4 | ?
CC(C)CC1NC(C(=O)O)Cc2c1[nH]c1ccccc21 (stereo not given) | -1 | -5% | 14% | -3.5 | 0.0% | -1 | -15%[15.4 µM]
CC(C)(C)NC(=O)c1ccc(NC(=O)C2COc3ccccc3O2)cc1 (stereo not given) | -3 | -12% | 9% | 6.2 | -0.7% | ? | 12%
O=C(Nc1cc(-c2ccccc2)nn1C1CCCCC1)c1ccc(Cl)cc1 | -32 | -10% | . | . | -4.9% | . | .
CCOC(=O)CCc1c(C)nc(-n2[nH]c(C)c(CCO)c2=O)[nH]c1=O | -3 | -2% | -23% | -0.1 | . | 1 | 16%[15.4 µM]
COc1ccccc1CNC(=O)CCS(=O)(=O)c1cccc2nonc12 | -6 | 11% | 8% | 1.4 | -0.8% | ? | 3%
CC1(C)CC(NC(=O)c2ccc(Br)o2)CC(C)(C)N1 | -8 | 5% | 6% | -2.4 | . | 1 | -11%
O=C(NC1CCN(Cc2ccccc2)CC1)C1CCN(S(=O)(=O)c2cccc([N+](=O)[O-])c2)CC1 | -13 | 5% | 19% | -4.1 | -1.3% | -2 | 12%[15.4 µM]
C[C@H](CO)N1C[C@H](C)[C@@H](CN(C)Cc2ccncc2)Oc2c(NS(=O)(=O)c3ccccc3)cccc2C1=O | 0 | 8% | . | . | 0.7% | . | ?
CCOC(=O)c1cccc(NC(=O)CCS(=O)(=O)c2cccc3nsnc23)c1 | -6 | -11% | -22% | 0.4 | -2.6% | 3 | -22%
O=S(CC(O)COCc1ccc(Cl)cc1)c1ccccn1 (stereo not given) | 2 | 6% | 3% | 0.5 | -2.8% | -3 | -19%
Cc1c2c(cc3c1[nH]c1ccccc13)C=NCC2 | -18 | -1% | . | . | . | . | ?
CCC(O)CNC(=O)CCc1nnc(C2(c3ccc(Cl)cc3)CCC2)o1 (stereo not given) | -4 | 5% | 9% | -0.1 | . | ? | 14%
CCCn1c(=O)c(F)cn(Cc2ccc(OC)c([N+](=O)[O-])c2)c1=O | 3 | 6% | 4% | 1.1 | -0.7% | . | 21%
Cc1c(NC(=O)CC2CC(C)OC2=O)c(=O)n(-c2ccccc2)n1C (stereo not given) | 6 | 4% | . | . | -0.9% | . | -7%
NC(=O)c1ccc(NC(=O)CCc2nc3sc4c(c3c(=O)[nH]2)CCCC4)cc1 | -16 | 5% | . | . | -4.0% | 29 | -38%[inhibitor]
CC1CCCCC1NC(=O)CCS(=O)(=O)c1ccc2c(c1)NC(=O)CS2 (stereo not given) | -3 | 2% | 10% | . | 0.8% | -11 | -8%
O=C(Nc1ccccc1)c1nn(-c2ccccc2)c(=O)cc1C(F)(F)F | -9 | -2% | -5% | ? | 2.0% | -2 | 5%
C=CCn1c(COc2ccc(Cl)cc2)nnc1SCC(=O)NCC(=O)OCC | -5 | -10% | 15% | 1.4 | -1.0% | -2 | ?
COc1cc(OC)c(N(C)C(=O)c2cn(C)c(=O)c3cc(OC)c(OC)cc23)cc1Cl | -13 | -8% | -2% | -8.4 | -2.0%&-8.8% | 2 | ?
CC(NC(=O)CCC(=O)c1ccc(F)cc1)C1CC2CCC1C2 (stereo not given) | 0 | 3% | 13% | 1.3 | . | -14 | 16%
Cc1ccc(NC(=O)C(=O)c2c(-c3ccccc3)cc3ccccn23)cc1S(=O)(=O)N1CCOCC1 | -8 | -8% | 14% | 0.5 | 1.2% | 24 | 27%

Carrying on:
SMILES | D2 PAM | gsp antag | Sfp PPTase inh | Menin-MLL FL inh | ClpP mod | TRPV1 PAM | gsp agonist
CN(C(=O)COC(=O)c1nc(-c2ccccc2)n(-c2ccccc2)n1)C1CCS(=O)(=O)C1 (stereo not given) | 3 | 1% | 10% | 2.6 | 1.2% | 8 | -37%[inhibitor]
Cc1cc(C(=O)NCc2ccccc2F)c2ccccc2n1 | -5 | 6% | -3% | ? | . | 10 | 19%
CCOC(=O)C1CCN(C(=O)COC(=O)CSc2ccc(C(N)=O)cc2[N+](=O)[O-])CC1 | -14 | -1% | 15% | . | 1.2% | -2 | 15%[15.4 µM]
Cc1ccc2c(Cl)cc(Cl)c(OCC(=O)Nc3ccc(C)c(S(=O)(=O)N(C)C)c3)c2n1 | . | . | 4% | 1.7 | . | 20 | .
COc1ccc(N(C)S(=O)(=O)c2cccc(C(=O)N3CCN(c4cccc(C)c4C)CC3)c2)cc1 | 2 | ? | . | . | -0.5% | . | -1%
O=C(NCc1ccccc1)c1cc(=O)[nH]c2ccccc12 | -8 | 11% | 17% | -0.7 | ? | -1 | 15%
O=C1/C(=C/c2cccs2)N=C(c2cccs2)N1Nc1ccccc1 | -22 | 0% | 4% | ? | 0.3% | 3 | 25%
